Screening data as filed in PubChem.
TRPML1 agonist: qHTS for Agonists of the Human Mucolipin Transient Receptor Potential 1 (TRPML1). AID 624414, 2012. TRPML1-expressing cells, Ca2+ dye fluorescence, FDSS; host cell line not named in the record; reference of the full effect not given here. activation, % (test concentration not listed). Mucolipin-1 (Homo sapiens), Q9GZU1. actives 0.12% (n = 410,000); in the data active = activation above about 50%; inconclusive = about 30% to 50%; inactive = below about 30%; further: 0% is about no effect; the text of the record puts the active cut at 80%
Target sequence (Q9GZU1 whole entry, looked up): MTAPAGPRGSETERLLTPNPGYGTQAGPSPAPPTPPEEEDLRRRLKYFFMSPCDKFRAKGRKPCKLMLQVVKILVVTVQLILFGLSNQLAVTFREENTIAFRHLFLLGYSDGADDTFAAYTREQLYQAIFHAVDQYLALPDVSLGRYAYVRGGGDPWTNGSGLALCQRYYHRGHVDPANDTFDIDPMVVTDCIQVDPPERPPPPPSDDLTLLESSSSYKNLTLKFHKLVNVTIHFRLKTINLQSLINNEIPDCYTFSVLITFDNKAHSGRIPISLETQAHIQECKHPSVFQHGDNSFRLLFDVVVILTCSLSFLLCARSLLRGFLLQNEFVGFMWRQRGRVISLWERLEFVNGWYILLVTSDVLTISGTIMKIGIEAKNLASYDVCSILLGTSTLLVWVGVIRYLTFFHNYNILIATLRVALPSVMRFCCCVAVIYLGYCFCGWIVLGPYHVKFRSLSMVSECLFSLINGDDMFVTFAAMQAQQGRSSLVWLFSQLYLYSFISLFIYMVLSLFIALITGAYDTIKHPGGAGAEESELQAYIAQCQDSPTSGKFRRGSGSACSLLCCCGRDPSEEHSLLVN
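Agonist activity was taken from a 110 s kinetic Ca2+ dye read on the FDSS after pinning compounds onto TRPML1-DL cells. The cells were seeded at 1,500/well with Tet inducer, incubated about 16 h, then dye-loaded at room temperature.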
D2 ag: Beta-Arrestin HTS for Positive Allosteric Modulators of the Human D2 Dopamine Receptor: Agonists; D(2) dopamine receptor (Homo sapiens), P14416; activation, % (no concentration beside the values); AID 624465, 2012; DiscoveRx PathHunter D2 beta-arrestin, luminescence, 90 min; 100% = 57 uM dopamine signal; actives 0.084% (n = 360,000); in the data active = activation above about 40%; inconclusive = about 15% to 40%; inactive = below about 15%; further: compound concentration not given in the record; the text of the record calls up to 30% inactive
Target sequence (P14416 whole entry, looked up): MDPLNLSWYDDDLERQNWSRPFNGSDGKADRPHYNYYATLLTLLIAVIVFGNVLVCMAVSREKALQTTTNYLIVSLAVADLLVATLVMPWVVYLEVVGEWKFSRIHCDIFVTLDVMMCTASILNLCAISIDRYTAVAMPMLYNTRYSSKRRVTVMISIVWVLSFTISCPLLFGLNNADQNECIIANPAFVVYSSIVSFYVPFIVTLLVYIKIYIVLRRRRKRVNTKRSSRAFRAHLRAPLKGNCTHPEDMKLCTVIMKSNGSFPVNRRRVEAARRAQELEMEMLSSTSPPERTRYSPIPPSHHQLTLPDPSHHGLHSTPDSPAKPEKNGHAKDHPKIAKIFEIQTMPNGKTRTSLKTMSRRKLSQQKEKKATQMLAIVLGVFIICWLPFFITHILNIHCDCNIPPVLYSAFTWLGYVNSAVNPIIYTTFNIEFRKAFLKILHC
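Agonist mode: compounds alone added to overnight-plated D2 PathHunter cells for 90 min at 37 C, with 57 uM final dopamine (EC100) defining full response. Beta-arrestin recruitment detected by chemiluminescent reagent, read after 1 h at ambient temperature.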
Six1-Eya2 inh: qHTS Assay for Inhibitors of the Six1/Eya2 Interaction. AlphaScreen GST-Six1/His-Eya2 binding, biochemical; active compounds read low; control for the full effect not named in the record. actives 0.56% (n = 360,000). activity change, % (concentration not given with the values). Homeobox protein SIX1 (Homo sapiens) + Protein phosphatase EYA2 (Homo sapiens), …; in the data active = activity change below about -65%; inconclusive = about -30% to -65%; inactive = above about -30%; further: on the % scale 0 is the no-effect control and ±100 the full control effect
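GST-Six1 + His-Eya2 (5X stock: 250/500 nM); Tris pH 8.0, 300 mM NaCl, 0.05% BSA, 0.02% Tween 20; GSH donor/Ni acceptor beads; 1 h 37 °C dark; AlphaScreen readout.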
CtBP-E1A inh: qHTS Assay for Inhibitors of the CtBP/E1A Interaction; actives 0.49% (n = 340,000); CtBP / adenovirus E1A interaction (AlphaScreen); AID 651724, 2012; AlphaScreen GST-E1A/His-CtBP binding, 1536-well; active compounds read low; control for the full effect not named in the record; activity change, % (concentration not given with the values); in the data active means activity change below about -65%; inconclusive means about -30% to -65%; inactive means above about -30%; further: on the % scale 0 is the no-effect control and ±100 the full control effect
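AlphaScreen with 125 nM GST-E1A and 125 nM His-CtBP (5X stocks) in Tris pH 8.0, 300 mM NaCl, BSA, Tween 20, TCEP. Compounds preincubated 2 h at 37 deg C, then glutathione donor/nickel acceptor beads added for 1 h at 37 deg C in dark.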
PINK1 modulator: A Quantitative High throughput Screen to Identify Chemical Modulators of PINK1 Expression; PINK1 immunofluorescence, high-content cytometry, 24 h; Potency, µM (doses to about 76.6 µM), for inactives: at the highest dose activation (PINK1 increase), most hits filed as activators; actives 0.2% (n = 410,000); AID 624263, 2012; active = well fitted activation curve with a large enough effect; inconclusive = small, poorly fitted or top-dose-only effect; inactive = flat fitted curve, though single readings scatter; cell line not stated here;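 further: potency means the concentration at half of the fitted maximal effect; % of control where 0% means no effect; nearly all actives have a fitted effect of over 65% in size; a mitochondrial uncoupler was the plate control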
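Decision-based qHTS: stable cells, 24 h exposure to five compound concentrations, CCCP as control. Fixed cells stained for PINK1 plus nuclear, mitochondrial and cell markers, cytometer read.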
D2 PAM: Beta-Arrestin HTS for Positive Allosteric Modulators of the Human D2 Dopamine Receptor: Potentiators. D(2) dopamine receptor (Homo sapiens), P14416. DiscoveRx D2 beta-arrestin cells, luminescence, 90 min; 100% = 57 uM dopamine signal. potentiation, % (no concentration beside the values). actives 0.23% (n = 360,000); active = potentiation of 50% or more; inconclusive = 30% to 50%; inactive = 30% or less;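 further: compound concentration not given in the record; tested on top of an EC20 dose of dopamine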
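D2 cells co-treated with compound plus 50 nM dopamine (EC20) for 90 min at 37 deg C to detect potentiation. Beta-arrestin recruitment was read as enzyme-fragment luminescence after 1 h at ambient temperature. Full response was set by 57 uM dopamine.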
Starred values were filed as active, the others as inactive; ? = inconclusive; · = not tested or not shown; & = joins results of further samples; [ ] = remark or other dose.

SMILES	TRPML1 agonist	D2 ag	Six1-Eya2 inh	CtBP-E1A inh	PINK1 modulator	D2 PAM
CNc1nc(NCCOc2ccccc2)c2sccc2n1	17	-5.1	-8	-8	1.4%	-12
CC(CCc1ccccc1)NC(=S)NC(=O)c1ccco1 (stereo not given)	1.6	-12	-1	-3	1.2%	-5
COc1ccccc1OCC(=O)NCCSCc1cccc(Cl)c1	3.5	0.2	0	8	1.7%	-1
CCOC(=O)N(Cc1ccccc1)Cc1ccc(C(=O)N[C@@H](Cc2ccccc2)C(=O)O)cc1	0.0	-4.2	5	-4	1.1%	0
FC(F)(F)c1ccc(N2CCN(c3ncnc4c3nnn4Cc3ccccc3Cl)CC2)cc1	-1.3	-0.9	3	0	5.7%	-11
CS(=O)(=O)c1cccc(C(=O)OCC(=O)Nc2ccc3c(c2)OCO3)c1	-0.2	1.3	2	-6	-3.7%	9
O=[N+]([O-])c1ccccc1Oc1cnc2ccccc2n1	0.6	1.7	-5	0	-0.3%	-5
Clc1nc(NCc2ccco2)nc(N2CCCCC2)n1	0.7	-6.0	-7	5	14%	1
CCOC(=O)N1CCC(NC(=O)CCc2ccccc2)CC1	-0.1	-0.9	7	14	-0.6%	-4
O=C(COc1ccccc1Br)Nc1ccc2c(c1)OCCCO2	-0.3	-0.7	9	4	0.3%	-3
Cc1oc2cc([N+](=O)[O-])c(O)c([N+](=O)[O-])c2c1C(=O)c1ccc(Br)cc1	2.1	-6.5	-23	-2	12%	-5
Cc1c(Cl)c(C(F)(F)F)nn1CC(=O)N1CCSCC1	1.8	-1.0	13	-4	-1.1%	10
c1cnc(N2CCN(c3nc4ccccc4n4cnnc34)CC2)nc1	0.2	-2.5	-2	-11	-0.1%[38.3 µM]	11
Cn1cccc1C(=O)OCC(=O)Nc1sccc1C#N	0.5	-3.0	-9	6	0.8%	-10
COc1ccc(CCNC(=O)CCNS(=O)(=O)c2cc(Br)cnc2N)cc1OC	0.4	5.0	5	-17	-0.7%	-10
Cc1cccc(Oc2cc(NC(=O)Cn3cnc([N+](=O)[O-])n3)cc([N+](=O)[O-])c2)c1	2.5	1.6	-20	-27	-3.2%	11
Cc1cc(N2CCC(C(=O)NC3CCCCC3)CC2)nc(-c2ccccc2)n1	-0.3	-2.0	-2	-1	6.4%	1
CCC(C(=O)OCC(=O)Nc1ccc(F)cc1)c1ccccc1 (stereo not given)	2.4	-1.2	4	6	3.4%	-11
COC(=O)c1ccc(/C=N/NC(=O)CC(=O)NC2CCCCC2)cc1	-0.3	-2.2	-12	1	-0.4%	-7
O=C(NCc1ccccc1F)C1CCCN(S(=O)(=O)c2ccc(-n3cnnn3)cc2)C1 (stereo not given)	-1.2	-2.0	-2	-19	11%	-8
O=C(CC1SC(=Nc2ccccc2)N(Cc2ccccn2)C1=O)Nc1cccc(Cl)c1 (stereo not given)	0.4	0.6	-20	-28	18%	-7
Clc1ccccc1-c1nn2c(-c3ccccn3)nnc2s1	1.5	-4.3	-6	-6	-0.3%	-12
COc1ccc2c(c1)C(=O)N1[C@H]3c4cc(Br)ccc4OC[C@@H]3[C@H](c3ccccc3)[C@]1(C)C(=O)N2	-0.1	-0.6	-8	-3	8.8%	-34
COc1ccc(S(=O)(=O)N2CCN(C(=O)C3CCCCC3)CC2)cc1	-0.5	-3.7	0	7	1.4%	-4
CN1c2ccccc2C(C)(C)C12C=Cc1cc(O)ccc1O2 (stereo not given)	1.2	7.2	-23	2	·	21
Cc1cc(C)cc(C(=O)NC(CC(N)=O)c2ccc(NC3CCCCCC3)c([N+](=O)[O-])c2)c1 (stereo not given)	0.2	-1.5	0	0	6.1%	-12
CCNC(=S)N/N=C/c1ccc(C(=O)O)cc1	-0.1	-1.5	6	9	-1.4%	0
Cc1onc(-c2ccccc2Cl)c1C(=O)Nc1cccc(S(=O)(=O)N2CCOCC2)c1	0.3	-0.9	-2	5	1.0%	-3
CCOC(=O)CC(NC(=O)C1c2ccccc2Oc2ccccc21)c1ccccc1Cl (stereo not given)	0.2	-4.2	-4	-1	4.6%	-1
CCCCCc1c(C)nc(Nc2ccc(F)cc2)[nH]c1=O	-0.3	-3.6	-1	2	?	9
NC(c1ccccc1)c1csc(NC(=O)NCC2CCCCC2)n1 (stereo not given)	1.0	-9.5	?	?	12%	-22
FC(F)(F)c1cc(-c2ccco2)nc(NCc2ccco2)n1	0.4	-2.4	-3	2	0.8%	-22
Cc1ccc(C2c3sc(=O)[nH]c3SC3C(=O)NC(=O)C32)cc1 (stereo not given)	-0.6	-4.3	1	6	0.7%	-32
CC(Oc1ccc(Cl)cc1Cl)C(=O)NCCC1=CCCCC1 (stereo not given)	1.7	-2.0	26	14	10%	-9
CC(=O)c1cccc(NC(=O)CN2C(=O)COc3ccc(Cl)cc32)c1	-0.5	2.7	-11	-12	-2.6%[38.3 µM]	5
COc1cc(OC)c(S(=O)(=O)NC(C)C)cc1S(=O)(=O)NC(C)C	0.0	-1.7	26	-8	-1.4%	-1
Cc1cc(C(F)F)n2nc(C(=O)Nc3sc4c(c3C#N)CCC4)nc2n1	2.1	-4.7	-1	-18	0.8%	-8
Cc1ccccc1OCC(=O)Nc1nc(-c2ccncc2)cs1	0.3	2.2	-4	5	8.9%	-2
COc1ccc(N2CCN(C(=O)c3ccc(NS(=O)(=O)c4cccs4)cc3)CC2)cc1	0.0	-0.1	-3	-1	-0.4%	-7
O=C(Cc1ccccc1)Nc1nnc(-c2ccco2)o1	-1.2	-3.6	-22	-10	0.1%	3
CCOc1ccc(-c2cc(C(=O)NCCCn3ccnc3)c3cc(Br)ccc3n2)cc1	-0.4	6.2	-28	-8	5.7%	-4
O=c1[nH]cnc2c1ncn2[C@H]1CC[C@@H](CO)O1	-0.4&-0.3	3.1	1	6	1.5%&1.8%	5
CC(/C=N/Nc1nncc(=O)[nH]1)=C\c1ccccc1	-0.2	-4.9	2	-5	-1.7%	-2
Cc1ccc(OCCC(=O)OCC(=O)NC2CCCC(C)C2C)cc1 (stereo not given)	0.8	-0.2	7	14	0.9%	-3
Cc1nn(CCCC(=O)NC(C)c2ccccc2)c(=O)c2nn(-c3ccccc3)c(C)c12 (stereo not given)	1.5	-1.7	-5	-16	0.7%	-6
O=C(c1ccccc1)c1cc[n+]([O-])cc1	-0.8	-2.2	1	2	0.3%	-1
Cn1nc(C(F)(F)F)c(C(=O)Nc2ccc(F)cc2F)c1Cl	-0.7	-0.7	4	4	-0.8%	-3
CNC(=O)NNC(=O)c1onc(-c2c(Cl)cccc2Cl)c1C(=O)OC	-0.6	-5.8	10	3	2.9%	-1
CC(C(=O)O)C1SC(=O)NC1=O (stereo not given)	3.3	-2.5	14	-1	-1.8%	7
COC(=O)Nc1ccc2c(c1)N(C(=O)CCCl)c1ccccc1S2	0.4	5.1	-4	-3	4.9%	6
O=C(N/N=C/c1cccnc1)c1ccc2ccccc2c1O	-0.6	-7.3	0	4	1.9%	-2
COc1ccc(C(C(=O)NC(C)(C)C)N(C(=O)Cn2nnc3ccccc32)c2cccc(C(C)=O)c2)cc1O (stereo not given)	0.4	-3.7	3	8	0.6%	0
O=c1c2ccccc2cnn1Cc1n[nH]c(=S)n1-c1ccc(F)cc1	0.0	4.8	5	3	4.6%	-8
CCn1c(=O)cc(OCC(=O)NCc2cccs2)c2ccccc21	-0.3	-2.2	0	0	0.9%	-17
CCOC(=O)c1c(S(=O)(=O)N(C)C2CCCCC2)c(C)n(C)c1C	-0.7	-0.7	-3	-4	0.2%	-2
C/C(=N\NC(=O)OC(C)(C)C)c1ccccc1Br	1.8	2.8	30	0	2.1%	2
Cc1cc(C)c(S(N)(=O)=O)c(C)c1N(C)S(=O)(=O)c1ccc(Cl)cc1	2.7	-0.7	-3	-10	0.4%	-8
CCOC(=O)N1CCN(c2ccc(S(=O)(=O)N3CCC(C)CC3)cc2[N+](=O)[O-])CC1	0.2	0.4	?	·	2.8%	-5
COc1ccc(-c2nsc(SCC(=O)Nc3cc(C)on3)n2)cc1	0.6	0.8	5	1	6.1%	2
CCOC(=O)C1(C)C=C(Nc2ccc(OCC)cc2)C(=O)N1c1ccccc1 (stereo not given)	-1.1	3.7	-15	·	0.9%	2

New compounds follow
SMILES	TRPML1 agonist	D2 ag	Six1-Eya2 inh	CtBP-E1A inh	PINK1 modulator	D2 PAM
O=C(CN(c1ccccn1)S(=O)(=O)c1ccc(F)cc1)Nc1ccc(F)cc1F	0.0	-4.4	8	2	1.9%	-4
CC(NC(=O)Nc1ccc(Br)cc1)C(C)(C)C (stereo not given)	0.4	0.2	5	·	16%	-4
COc1cccc(N=CC2=C(O)CC(C)(C)CC2=O)c1	-0.2	-1.7	12	0	-1.8%	-12
Cc1ccc(-c2nc3c(Cl)cc(C(F)(F)F)cn3c2Cc2cccc(Cl)c2)cc1	-0.2	·	2	5	-0.7%	·
O=C(c1ccc(CSc2nc3ccncc3[nH]2)cc1)N1CCCCCC1	·	0.8	2	6	0.0%	-1
COc1ccc(/C(C)=N/Nc2nc(C)c(C(C)=O)s2)cc1	2.6	-4.0	0	-6	6.1%	0
COC(=O)[C@@H](Cc1c[nH]c2ccccc12)NC(=O)CCC(=O)c1ccc(Br)cc1	·	-1.8	2	2	0.8%	-2
CCn1c(SCC(=O)N(C)C2CCS(=O)(=O)C2)nnc1-c1cccs1 (stereo not given)	-0.3	-0.9	4	-3	0.6%	-4
COc1ccc(S(=O)(=O)NCCSCc2cccs2)cc1	1.1	-1.0	2	-6	0.3%	-10
O=Cc1ccc(-c2cccc(C(=O)O)c2)o1	-0.9	-1.5	-15	2	0.7%	4
COCCN(CCOC)c1nc(N)c2c(N)nc3c(c2c1C#N)CC(=O)N3Cc1ccc(Cl)cc1	0.1	5.0	2	-1	10%	-7
C=CCNc1ncnc2sc(SC)nc12	0.2	-1.5	-7	·	-1.1%	16

Single records, from the list above. Values in the order: TRPML1 agonist, D2 ag, Six1-Eya2 inh, CtBP-E1A inh, PINK1 modulator, D2 PAM
Listed for `Clc1ccccc1-c1nn2c(-c3ccccn3)nnc2s1` : 1.5, -4.3, -6, -6, -0.3%, -12
Listed for `COc1ccc(S(=O)(=O)NCCSCc2cccs2)cc1` : 1.1, -1.0, 2, -6, 0.3%, -10
Listed for `O=C(Cc1ccccc1)Nc1nnc(-c2ccco2)o1` : -1.2, -3.6, -22, -10, 0.1%, 3
Listed for `O=c1c2ccccc2cnn1Cc1n[nH]c(=S)n1-c1ccc(F)cc1` : 0.0, 4.8, 5, 3, 4.6%, -8
Listed for `Cc1ccc(C2c3sc(=O)[nH]c3SC3C(=O)NC(=O)C32)cc1` (stereo not given) : -0.6, -4.3, 1, 6, 0.7%, -32
